Screening data as filed in PubChem BioAssay.
YjeE inh – YjeE (TsaE) inhibition, E. coli; P0AF67; Potency, µM; 0.05% of 71,000 active; purified YjeE, fluorescence polarisation of a bound ADP probe; active = well fitted falling curve; inconclusive = weaker or top-dose-only fall, or a rising curve; inactive = flat or poorly fitted curve;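 note: top concentration of the series not given in the record; excess ADP was the control for the full effect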
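Purified YjeE (10 uM) with BODIPY Texas Red-labeled ADP probe (2 uM); compounds pin-transferred, 15 min at room temperature. Binding inhibition read as decreased fluorescence polarization; ADP titration as control.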
PK Bst – modulators of Bacillus stearothermophilus pyruvate kinase. partly purified Bacillus stearothermophilus pyruvate kinase, luminescence ATP production; ribose 5-phosphate activator present at AC10. Potency, µM. 1.2% of 51,000 active; in the data active means potency below about 11 µM; inconclusive means mostly about 12 µM to 25 µM; inactive means weaker than that;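 the screen sought inhibitors and activators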;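 note: potency is the fitted concentration of half-maximal effect; scaled between full activation by ribose 5 phosphate and full inhibition by luteolin; about four in five hits inhibit and the cells do not say which; series up to 57 µM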
* marks the source's active call; other numbers are inactive results; i = inactive; ? = inconclusive; / = no result given. This is a subset; count on the stated rates, not on these rows.

Each structure is followed by: YjeE inh | PK Bst
1) CCc1nnc2n1N=C(c1ccc(-c3cc(Cl)ccc3Cl)o1)CS2
 : i | >57
2) c1ccc2sc(Cc3nnc4n3CCCCC4)nc2c1
 : i | >57
3) Cn1c(O)c(C=Nc2ccc(Cc3ccncc3)cc2)c(=O)n(C)c1=O
 : / | >25.6
4) CCCNS(=O)(=O)c1ccc(OCC(=O)NCc2ccc3c(c2)OCO3)cc1
 : i | >57
5) Fc1cccc(Cl)c1CSc1ncn[nH]1
 : i | /
6) Cc1ccc(SC(C)C(=O)NCC(C)C)cc1 (centres undefined)
 : i | >57
7) COc1ccc(OCC(=O)Nc2ccc(S(=O)(=O)N3CCOCC3)cc2)cc1
 : i | >57
8) Cc1cccc(CNc2ccnc(-c3ccc(N(C)C)cc3)n2)c1
 : i | /
9) COC(=O)N1CCC2(CC1)CN(c1ccccn1)C2
 : i | /
10) Cc1cc(-n2c(C)cc(C(=O)CN3C(=O)NC4(CCCCCC4)C3=O)c2C)no1
 : i | >57
11) Cc1sc(NC(=O)CSc2nnc3scc(-c4ccccc4)n23)c(C#N)c1C
 : i | >57
12) O=c1oc(Cl)c(Cl)c2ccccc12
 : i | /
13) COc1ccc(-n2c(=O)[nH]cc(C(=O)N3CCCc4ccccc43)c2=O)cc1
 : i | >57
14) c1ccc2c(CSCc3cccc4ccccc34)cccc2c1
 : i | /
15) C=C[C@@](C)(O)CC[C@H]1[C@]2(C)CCCC(C)(C)[C@H]2CC[C@]1(C)O
 : i | /
16) CC(C)[C@H](NC(=O)C1(c2ccccc2)CCN(C(=O)OC(C)(C)C)CC1)C(=O)O
 : i | >57
17) Cc1cc(N2CCC(C(=O)NCC3CC3)CC2)nc(-c2ccccc2)n1
 : i | >57
18) Fc1ccc(C2CC(c3ccc(F)cc3)n3ncnc3N2)cc1 (centres undefined)
 : i | >57
19) Cc1noc(C)c1COC(=O)CCc1ccc(S(=O)(=O)N2CCCCC2)cc1
 : i | >57
20) Cc1cccc(Cn2cnc3c(nnn3Cc3ccc(Cl)cc3)c2=O)c1
 : i | >57
21) C=C1C(=O)O[C@@H]2[C@@H]1CC/C(C)=C\CC[C@@]1(C)O[C@H]21
 : i | /
22) CCOC(=O)CCP(=O)(O)C(O)c1ccc(OC)cc1 (centres undefined)
 : i | >57
23) COc1ccc(S(=O)(=O)N2CCC(C(=O)NCc3cccc(OC)c3)CC2)cc1
 : i | >57
24) Cc1onc(-c2ccccc2)c1C(=O)N1CCN(C(=O)c2ccco2)CC1
 : i | >57
25) CC(C)(CNC(=O)C1CCCC1)CNC(=O)C1CCCC1
 : i | >57
26) COc1ccc(Cl)cc1N(CC(=O)N1CCN(Cc2ccccc2)CC1)S(C)(=O)=O
 : i | /
27) O=C(CSc1ncn(-c2ccccc2)n1)Nc1nc2c(s1)CCCC2
 : i | >57
28) CN(C)c1ccc(/C=C/c2ccncc2)cc1
 : i | >57
29) CCN(CC)S(=O)(=O)c1cc(C)c(C)cc1Br
 : i | ?
30) C[C@H](C(=O)c1ccccc1)[C@@H](c1ccccc1)N1CCOCC1
 : i | /

Down the list, from the results shown.
Nos. 4 to 14 in YjeE inh read i, i, i, i, i, i, i, i, i, i, i

Other structures
Each structure is followed by: YjeE inh | PK Bst
31) O=C(Cn1cnc2c(nnn2-c2ccc(F)cc2)c1=O)NCC1CCCO1 (centres undefined)
 : i | >57
32) Cc1ccc(OCCC(=O)OCC(=O)C(C)(C)C)cc1
 : i | >57
33) Cc1csc(NC(=O)CSc2nnc(-c3ccoc3C)n2CCc2ccccc2)n1
 : i | >57
34) COC(=O)c1cc2c(ccn2-c2ccc(F)cc2)n1CC(=O)N1CCN(C(=O)c2ccco2)CC1
 : i | >57
35) O=C(C1CCC(N2C(=O)C3CC=CCC3C2=O)CC1)N1CCCCC1 (centres undefined)
 : i | /
36) CCOC(=O)C1=C(C)NC(=O)NC1c1ccc(OCC(=O)N2CCCCC2)cc1 (centres undefined)
 : i | >57
37) COCCCn1c(=S)[nH]c2ncccc2c1=O
 : i | >57
38) Cc1cccc2cc(COC(=O)C3CCCO3)c(=O)[nH]c12 (centres undefined)
 : i | >57
39) Cc1ccc2c(C)c(C(=O)Nc3c(C)n(C)n(-c4ccccc4)c3=O)oc2c1
 : i | >57
40) Cc1ccc(Cl)cc1
 : i | /
41) CN(C)c1ccc(C2N(C(=O)N3CCOCC3)CCN2S(=O)(=O)c2ccccc2)cc1 (centres undefined)
 : i | >57
42) CC(OC(=O)C1CCCO1)C(=O)NC1CCCC1 (centres undefined)
 : i | >57
43) N#Cc1c(N)nc2c(c1-c1ccncc1)CCCCC2
 : i | >57
44) COc1ccc(N2C(=O)c3ccccc3NC23CCCCC3)cc1
 : i | /
45) CC1Oc2ccccc2N(CC(=O)NCc2cccs2)C1=O (centres undefined)
 : i | >57
46) Cc1cc(C(=O)CSc2nc(N)cc(N)n2)c(C)n1CCc1ccc(F)cc1
 : i | >57
47) CCOc1ncccc1C(=O)OCC(=O)c1c(N)n(C)c(=O)n(C)c1=O
 : i | >57
48) CCc1cc2c(=O)c(-c3cscn3)coc2cc1O
 : / | >25.6
49) Cn1ccnc1SCc1cn2cc(Br)ccc2n1
 : i | i
50) CC1CCCC(C)N1C(=O)COC(=O)c1ccc2c(c1)OCO2 (centres undefined)
 : i | >57
51) Cc1cccc(OCc2nnc(SCn3nnc4ccccc4c3=O)o2)c1
 : i | >57
52) COC(=O)/C=C1\NCCSC1=O
 : i | >57
53) O=C(Nc1nc2c(s1)CCCC2)Oc1ccccc1
 : i | >57
54) O=C(c1ccc2c(=O)n(Cc3ccco3)c(=S)[nH]c2c1)N1CCN(c2ccccc2)CC1
 : i | >57
55) CCOc1ccccc1C(=O)Nc1cc(Cl)ccc1O
 : i | >57
56) Cc1cc(-n2c(=O)c(C#N)cc3c(=O)n4ccccc4nc32)no1
 : i | >57
57) O=C(Nc1nccs1)c1ccc2nccnc2c1
 : i | /
58) CC12C(=O)N(c3ccccc3C(=O)O)C(=O)C1C1C=CC2C1 (centres undefined)
 : i | >57
59) CCOC(=O)C(C)Oc1ccccc1C1NC(=O)NC(C)=C1C(=O)Nc1ccc(C)c(C)c1 (centres undefined)
 : i | >57
60) C=CCc1cccc(/C=N/c2ncn[nH]2)c1O
 : / | >11.4
61) Cc1cccc(N=c2oc3cc(O)ccc3cc2C(N)=O)c1
 : i | /
62) CNC(=O)C1(C)C=CCN1C(=O)c1ccccc1 (centres undefined)
 : i | /
63) Nc1nc(-c2ccco2)nn1C(=O)c1cccnc1
 : i | >57
64) Cc1c(OCc2nn[nH]n2)ccc2c(-c3ccccc3)cc(=O)oc12
 : i | >57
65) COC(=O)Nc1ccc2[nH]cc(CCNC(C)=O)c2c1
 : i | /
66) CC(=O)N1CC=CC1(C)C(=O)NCC1CC1 (centres undefined)
 : i | /
67) CCSc1nnc(N(CCC(=O)O)CCC(=O)O)s1
 : / | >25.6
68) COc1cc(C)nc(Oc2ccc(=O)n(C)n2)n1
 : / | >25.6
69) COc1ccc(C2=CC(c3sccc3C)n3nnnc3N2)cc1 (centres undefined)
 : i | >57
70) O=C(CSc1nc(-c2ccco2)cc(C(F)(F)F)n1)N1CCCc2ccccc21
 : i | >57
71) O=C(CCN1C(=O)c2ccccc2C1=O)N1CCN(c2ccccc2)CC1
 : i | >57
72) O=C(NCc1cccnc1)C1CC(=O)N(C2CCCCC2)C1 (centres undefined)
 : i | >57
73) CCC(C)NS(=O)(=O)c1ccc(S(=O)(=O)Nc2cc3c(cc2C(C)=O)OCO3)cc1 (centres undefined)
 : i | >57
74) COc1ccc(CNc2ncncc2-c2ccc(N(C)C)cc2)c(OC)c1
 : i | /
75) CCOCCCNC(=O)C(NC(=O)C1CCC(=O)N1)c1ccc(C)cc1 (centres undefined)
 : i | >57
76) CCOc1ccc(N(CC(=O)Nc2ccc(OC)cc2)S(C)(=O)=O)cc1
 : i | >57
77) O=C(Cn1nnc(-c2ccc(N3CCOCC3)cc2)n1)OC1CCCCC1
 : i | >57
78) Cc1cccc(N2CCN(c3cccc(C)c3)C2c2cccnc2)c1
 : i | /
79) COc1ccc(-c2nc3cnc(N4CCOCC4)nc3n(C[C@H]3CCCO3)c2=O)cc1
 : i | /
80) N#Cc1ccsc1NC(=O)CSc1ncn[nH]1
 : i | >57

More compounds
Each structure is followed by: YjeE inh | PK Bst
81) CC(=O)C(C)Oc1cc(C)cc2oc(=O)c(C)c(C)c12 (centres undefined)
 : i | >57
82) O=C(NCc1cccs1)C1CCN(S(=O)(=O)c2cccs2)CC1
 : i | >57
83) COc1ccccc1N1CCN(C(=O)C(F)F)CC1
 : i | >57
84) O=c1c(CCc2ccccc2)nc2cnc(Nc3ccccc3)nc2n1Cc1cccs1
 : i | /
85) CNc1ccccc1-c1nc2ccccc2n(C)c1=O
 : / | >25.6
86) C#CC(C)(CC)NC(=O)Cn1nnc(-c2ccc(S(C)(=O)=O)cc2)n1 (centres undefined)
 : i | >57
87) CCC(c1nnnn1Cc1ccco1)N(CCc1ccccc1)Cc1cc2cc(C)ccc2[nH]c1=O (centres undefined)
 : i | >57
88) O=C(CSc1ccc2nnc(-c3ccccn3)n2n1)NCc1ccco1
 : i | /
89) Cc1cc(NC(=O)Nc2cc(C)nn2-c2ccccc2)n(-c2ccccc2)n1
 : i | >57
90) C=CCc1ccccc1OCC(O)CNC(C)C (centres undefined)
 : / | >25.6
91) CC(C)(C)c1ccccc1NC(=O)c1cccnc1
 : i | >57
92) O=C(CC1CCS(=O)(=O)C1)Nc1ccc[nH]c1=O (centres undefined)
 : i | >57
93) O=C(c1noc2c1CCCC2)N1CCOCC1
 : i | >57
94) OC1(C2(O)CC(c3ccccc3)ON2)CCCCC1 (centres undefined)
 : / | >25.6
95) O=c1[nH]c(C(F)(F)F)nc2c1nnn2Cc1ccccc1F
 : i | >11.4
96) COC(=O)c1cccc(NC(=O)CSc2nnc(C)n2Cc2ccccc2)c1
 : i | >57
97) Nc1cccc2c(N)cccc12
 : i | /
98) CC(C)=CCC(C)(C)C1OCCN1C(=O)Nc1ccccc1 (centres undefined)
 : i | >57
99) NC(=S)SCCC(=O)O
 : i | /
100) Brc1ccc2[nH]c3nc(SCCN4CCOCC4)nnc3c2c1
 : i | >57
101) CCOc1cc(-c2cc(N)n[nH]2)cc(OCC)c1OCC
 : i | /
102) Cc1ccc(-c2noc(CN(C(=O)CCCCCN3C(=O)c4ccccc4C3=O)C(C)C)n2)cc1
 : i | >57
103) O=C(NCCc1ccccc1)c1cc(-c2ccco2)on1
 : i | >57
104) Cn1cccc1-c1nc2ccccc2n1Cc1ccccc1
 : i | >57
105) CC(=O)Oc1ccc(N2C(=O)CC(N3CCOCC3)C2=O)cc1 (centres undefined)
 : i | /
106) CC(=O)Nc1nc2ccc(Br)cc2s1
 : i | /
107) Cc1ccc(C)c(-c2nc3cc(N)ccc3o2)c1
 : i | /
108) CCOCCCNC(=O)c1cn(C)c2ccc(S(=O)(=O)N(C)C3CCCCC3)cc2c1=O
 : i | /
109) Nc1cc(Br)c(N)c(Br)c1
 : i | >57
110) CC(C)CC(=O)N1CCN(S(C)(=O)=O)CC1
 : i | /

By substructure, the compounds so far with bromine.
Each structure is followed by: YjeE inh | PK Bst
29) CCN(CC)S(=O)(=O)c1cc(C)c(C)cc1Br
 : i | ?
49) Cn1ccnc1SCc1cn2cc(Br)ccc2n1
 : i | i
100) Brc1ccc2[nH]c3nc(SCCN4CCOCC4)nnc3c2c1
 : i | >57
106) CC(=O)Nc1nc2ccc(Br)cc2s1
 : i | /
109) Nc1cc(Br)c(N)c(Br)c1
 : i | >57

The list continues.
Each structure is followed by: YjeE inh | PK Bst
111) O=C1OCCC1Sc1nc2ccccc2s1 (centres undefined)
 : i | i
112) COc1ccc(-n2c(Cc3cccn3C)nnc2SCC(=O)NC2CCCCC2)cc1
 : i | /
113) CCN(C(=O)CN1CCN(c2ccc(OC)cc2)CC1)c1c(N)n(Cc2ccccc2)c(=O)[nH]c1=O
 : i | >57
114) CC1=C(C(=O)OCc2ccccc2)C(c2ccc3ccccc3c2)NC(=O)N1CCCCCC(=O)O (centres undefined)
 : i | /
115) CCCc1cc(=O)oc2cc(C)c(CN3CCCC3)c(O)c12
 : i | >57
116) CC(NS(=O)(=O)c1ccccc1)C(=O)Nc1ccc(S(N)(=O)=O)cc1 (centres undefined)
 : i | >57
117) Cc1ccc(S(=O)(=O)c2nc(N3CCOCC3)sc2Cl)cc1
 : i | >57
118) C[C@H](N)[C@H](O)c1cccc(O)c1
 : i | /
119) CCN=C1SC(CC(=O)Nc2ccc(C)cc2)C(=O)N1CC (centres undefined)
 : i | >57
120) CN(C(=O)c1cccnc1)c1nnc(-c2cnccn2)s1
 : i | >57
121) O=C(Nc1ccc(S(=O)(=O)N2CCCc3ccccc32)cc1)C1CCCO1 (centres undefined)
 : i | /
122) Cc1nc2ccccc2nc1N1CCCCC1
 : i | /
123) COC(=O)c1cc(Br)c(=O)n(CCc2ccccc2)c1
 : i | >57
124) COC(=O)c1ccccc1NC(=O)c1cc2ncc(Br)cn2n1
 : i | >57
125) Cc1cccn2c(=O)c3cc(C(=O)NC(C)c4ccccc4)c(=N)n(CCCn4ccnc4)c3nc12 (centres undefined)
 : i | >57
126) CCCCN1C(=O)C2ON(c3ccccc3C)C(c3ccco3)C2C1=O (centres undefined)
 : i | /
127) CCOC(=O)C(C)c1nc2ccccc2[nH]c1=O (centres undefined)
 : / | >25.6
128) COc1ccccc1N(C(=O)Cn1nnc2ccccc21)C(C(=O)NCc1ccco1)c1ccc(C)o1 (centres undefined)
 : i | >57
129) CN(CC(=O)O)Cc1c(O)c(Cl)cc(Cl)c1Cl
 : i | /
130) CC(C)OC(=O)c1nnn(-c2nonc2N)c1CN1CCCCCC1
 : i | >57
131) Nc1ccc(-c2ccc(N)cc2C(F)(F)F)c(C(F)(F)F)c1
 : i | >57
132) O=C(CN1C2=NCCCN2c2ccccc21)c1cccs1
 : i | /
